Source: PubChem (National Center for Advancing Translational Sciences (NCATS))
RE007 growth inh – less growth of the S. pombe RE007 Vpr strain; S. pombe RE007 Vpr strain, BacTiter-Glo ATP luminescence, 24 h; control for the full effect not named in the record; Potency, µM (doses to about 92.2 µM), inactives show top-dose activity change, negative = less growth; hit rate 0.21% among 360,000; AID 651644; active = well fitted falling curve with a large enough effect; inconclusive = small, poorly fitted or top-dose-only effect; inactive = no such curve, though single readings can be large or run the other way;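 note: % is set by controls: 0 for no effect and ±100 for the full control effect; nearly all actives have a fitted effect of over 50% in size; the assay follows cell death caused by Vpr and the record does not say whether a fall means rescue or toxicity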
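Fission yeast RE007 carrying one integrated HIV-1 vpr copy, seeded at OD 0.01 in PMG+AL medium with 23 nL pinned compound. Grown 24 h at 30 degrees; viability read by BacTiter-Glo luminescence after 5 min.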
MARV entry inh – Marburg virus entry inhibition. Marburg virus pseudotyped entry inhibition, cell reporter; control for the full effect not named in the record; about a third of the inactives were read at about 46 µM. Potency, µM (titrated, usually from 37.8 µM), inactives show top-dose activity change, negative = inhibition, most hits filed as inhibitors. hit rate 1.8% among 300,000. AID 540276; active = well fitted inhibition curve with a large enough effect; inconclusive = small, poorly fitted or top-dose-only effect, or effect the other way; inactive = flat fitted curve, though single readings scatter; tested in HEK293 cells; about a fifth of its hits are not listed in these tables; note: % is set by controls: 0 for no effect and ±100 for the full control effect; luciferase read-out
SARS PLP yeast – inhibitors of SARS-CoV papain-like protease in yeast | S. cerevisiae expressing SARS-CoV PLpro, growth rescue; control for the full effect not named in the record | hit rate 0.19% among 330,000 | Potency, µM (highest dose often 32.9 µM), without a hit: top-dose activity, positive = growth rescue; note: 0% is about no effect; nearly all actives have a fitted effect of over 55% in size; growth read by luminescence after 48 h
LASV entry inh – inhibitors of Lassa virus binding or cell entry; Lassa virus pseudotype entry inhibition, cell reporter; control for the full effect not named in the record; Potency, µM (titrated, usually from 37.9 µM), for inactives: top-dose activity change, negative = inhibition, hits mostly inhibitors; hit rate 1.2% among 300,000; AID 540256; active means well fitted inhibition curve with a large enough effect; inconclusive means small, poorly fitted or top-dose-only effect, or effect the other way; inactive means flat fitted curve, though single readings scatter; tested in HEK293 cells; note: % is set by controls: 0 for no effect and ±100 for the full control effect; nearly all actives have a fitted effect of over 50% in size; luciferase read-out
Cruzain noTriton – cruzain (T. cruzi) inhibition without detergent; purified cruzain, Z-FR-AMC fluorescence, no detergent; Potency, µM, without a hit: max response, negative = inhibition, hits mostly inhibitors; hit rate 2.3% among 200,000; AID 1476; active = well fitted curve in the direction sought with a large enough effect; inconclusive = small, poorly fitted or top-dose-only effect, or another doubt; inactive = no such curve, though single readings can be large; an effect the other way counts as inactive or inconclusive;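 note: plate controls were enzyme without inhibitor for no effect and buffer without enzyme for full effect; nearly all actives have a fitted effect of over 40% in size; top concentration of the series not given in the record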
Target sequence (P25779 123-467 limits assumed): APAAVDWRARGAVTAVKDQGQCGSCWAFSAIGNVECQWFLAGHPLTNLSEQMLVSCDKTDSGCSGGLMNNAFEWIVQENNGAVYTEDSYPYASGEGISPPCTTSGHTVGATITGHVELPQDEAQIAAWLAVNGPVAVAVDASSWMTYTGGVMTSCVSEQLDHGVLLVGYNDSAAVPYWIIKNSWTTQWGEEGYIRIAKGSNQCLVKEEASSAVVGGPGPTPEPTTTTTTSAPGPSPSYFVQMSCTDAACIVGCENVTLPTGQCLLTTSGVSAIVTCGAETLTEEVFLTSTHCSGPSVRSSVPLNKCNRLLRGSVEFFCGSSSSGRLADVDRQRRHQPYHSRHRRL
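Detergent-free condition (0.00005% Triton X-100) in acetate buffer pH 5.5 with DTT. 1.5 nM enzyme and compound were pre-mixed 15 min, then 2 uM Z-FR-AMC substrate added; reaction progress from fluorescence change between first and third reads (60 s).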
2A StopGo – lowers the luciferase signal of an FMDV 2A StopGo reporter | human cells with a luciferase reporter of 2A StopGo recoding; control for the full effect not named in the record | Potency, µM (top dose mostly 57.9 µM), for inactives: at the top dose signal change, negative = less light | hit rate 1.2% among 410,000 | AID 1159524; active = well fitted falling curve with a large enough effect; inconclusive = small, poorly fitted or top-dose-only effect; inactive = no such curve, though single readings can be large or run the other way; tested in HEK293T cells; note: % is set by controls: 0 for no effect and ±100 for the full control effect; nearly all actives have a fitted effect of over 45% in size; luciferase light after 4 h
Cruzain Triton – inhibitors of Trypanosoma cruzi cruzain with detergent | P25779 | purified cruzain, Z-FR-AMC fluorescence, 0.01% Triton | Potency, µM, for inactives: max response, negative = inhibition, hits mostly inhibitors | hit rate 0.43% among 200,000 | AID 1478; active = well fitted curve in the direction sought with a large enough effect; inconclusive = small, poorly fitted or top-dose-only effect, or another doubt; inactive = no such curve, though single readings can be large; an effect the other way counts as inactive or inconclusive;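 note: plate controls were neutral wells for no effect and buffer without enzyme for full effect; nearly all actives have a fitted effect of over 40% in size; top concentration of the series not given in the record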
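Detergent-containing run (0.01% Triton X-100) in acetate buffer pH 5.5 with 5 mM DTT: enzyme at 1.5 nM final, 15 min compound preincubation at room temperature, then 2 uM Z-FR-AMC substrate. Activity taken as 60 s fluorescence increase at 360/450 nm.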
NS1 inh – influenza NS1 inhibition; Potency, µM (top dose mostly 46.1 µM), without a hit: top-dose activity, positive = more growth; S. cerevisiae slowed by influenza A NS1, growth recovery by OD600; hit rate 0.4% among 270,000; note: actives are rising curves; nearly all actives have a fitted effect of over 50% in size
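Compounds were scored for reversing the slow growth caused by influenza A NS1 in S. cerevisiae, measured by optical density at 600 nm. Assay medium contained 2% galactose at pH 6.0; NS1-free yeast of the same strain were the positive control.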
Active calls of the source: *; & = joins results of further samples; [ ] = dose if it differs, or a comment. Unless noted, calls come from the whole dose curve; as a rule, active means well fitted rising curve with a large enough effect; inconclusive means small, poorly fitted or top-dose-only effect; inactive means no such curve, though single readings can be large or run the other way. Potency is the fitted concentration of half-maximal effect.

Screening CCOC(=O)C1(C)NC(c2ccco2)C2C(=O)N(C)C(=O)C21 (stereo not given) returned RE007 growth inh -6%, MARV entry inh -13%[46.1 µM], SARS PLP yeast 0%, LASV entry inh 18%, 2A StopGo -8% and NS1 inh 4%.
For COCCCNC(=O)c1ccc(CSCc2ccc(C)cc2)o1 the results were RE007 growth inh 14%, MARV entry inh inconclusive, SARS PLP yeast -2%, LASV entry inh inconclusive, 2A StopGo -24% and NS1 inh -7%.
`O=C(Cn1c(=O)n(-c2ccc(F)cc2)c(=O)c2sccc21)c1ccccc1` gave RE007 growth inh 23%, MARV entry inh 26%, SARS PLP yeast 16%, LASV entry inh 12%, Cruzain noTriton 9%, 2A StopGo -13%, Cruzain Triton -2.3% and NS1 inh 13%.
Cc1ccc(NC(=O)OCCNC(=O)c2ccncc2)cc1 was read as RE007 growth inh -9%, MARV entry inh -3%[46.1 µM], SARS PLP yeast 1%, LASV entry inh 8%, 2A StopGo 44%[activator] and NS1 inh -2%.
Screening Cc1c(CN2CCC(C(=O)Nc3ccc(Oc4ccccc4)nc3)CC2)cnn1C returned RE007 growth inh 15%, SARS PLP yeast 6%, 2A StopGo 42%[activator] and NS1 inh 1%.
For CCOc1ccc(N/C=C/C(=O)c2ccc(OC)cc2)cc1 the results were RE007 growth inh 3%, MARV entry inh 19%[46.1 µM], SARS PLP yeast -3%, LASV entry inh -17%[46.1 µM], 2A StopGo -1% and NS1 inh 8%.
`Cc1ccc2[nH]c3ccccc3c(=O)c2c1` gave RE007 growth inh -22%, MARV entry inh 2%, SARS PLP yeast -11%, LASV entry inh 18%, 2A StopGo 21% and NS1 inh -98%.
Cc1sc2ncn(CC(=O)N3CCCCC3)c(=O)c2c1S(=O)(=O)N1CCC(C)CC1 was read as RE007 growth inh -17%, MARV entry inh -4%[46.1 µM], SARS PLP yeast -2%, LASV entry inh -23%, 2A StopGo 6% and NS1 inh -10%.
`Cc1cc(C)n(S(=O)(=O)Cc2ccccc2)n1` gave RE007 growth inh 10%, MARV entry inh 11%&11%, SARS PLP yeast -6%, LASV entry inh 6%, Cruzain noTriton -2%, 2A StopGo -15%, Cruzain Triton 4.7% and NS1 inh 1%.
Screening Cc1cnc(C(=O)N2CCCC(C(=O)c3ccc(C(C)(C)C)cc3)C2)cn1 (stereo not given) returned RE007 growth inh 5%, MARV entry inh inconclusive, SARS PLP yeast -1%, LASV entry inh inconclusive, 2A StopGo -16% and NS1 inh 14%.
For CCOC(=O)c1sc(=S)n(Cc2ccccc2)c1C the results were RE007 growth inh -17%, MARV entry inh 4%[46.1 µM], SARS PLP yeast -1%, LASV entry inh -6%[46.1 µM], 2A StopGo 5% and NS1 inh -9%.
CCOc1cc(C(=O)OCC(=O)Nc2ccc(Cl)cn2)ccc1OCC(=O)N1CCOCC1 was read as RE007 growth inh 7%, MARV entry inh 0%, SARS PLP yeast 11%, LASV entry inh inconclusive, Cruzain noTriton 14%, 2A StopGo -19%, Cruzain Triton -5.1% and NS1 inh 24%.
Cc1c(C(=O)Nc2nccs2)oc2c(Cl)cccc12 was read as RE007 growth inh -18%, MARV entry inh -12%[46.1 µM], SARS PLP yeast 0%, LASV entry inh inconclusive and 2A StopGo 10%.
`COc1ccc(CCNC(=O)COc2ccc(S(=O)(=O)NC3CCCCC3)cc2Cl)cc1` gave RE007 growth inh 5%, MARV entry inh inconclusive, SARS PLP yeast -6%, LASV entry inh inconclusive, Cruzain noTriton -2%, 2A StopGo -3%, Cruzain Triton -9.6% and NS1 inh 6%.
For Cn1c(C(=O)NCc2ccccc2)cc2oc3ccccc3c21 the results were RE007 growth inh 0%, MARV entry inh 2.6µM*, SARS PLP yeast -2%, LASV entry inh inconclusive, Cruzain noTriton -3%, 2A StopGo 41%[activator], Cruzain Triton -13% and NS1 inh -36%.
For Cc1ccccc1-c1nc(CN2CCC(C(=O)NCCCN3CC(C)CC(C)C3)CC2)c(C)o1 (stereo not given) the results were RE007 growth inh 7%[3.69 µM], MARV entry inh inconclusive, SARS PLP yeast -3%, LASV entry inh inconclusive, Cruzain noTriton -9%, 2A StopGo -21%, Cruzain Triton 0.7% and NS1 inh 0%.
Screening COC(=O)C1=C(C)N=C2SCCC(=O)N2C1c1cc(Br)ccc1OC (stereo not given) returned RE007 growth inh -1%, MARV entry inh 1%, SARS PLP yeast -3%, LASV entry inh 7%, Cruzain noTriton 6%, 2A StopGo -7%, Cruzain Triton -3.8% and NS1 inh -9%.
Screening O=C(COC(=O)c1cc[n+]([O-])cc1)Nc1ccc([N+](=O)[O-])cc1Cl returned RE007 growth inh -3%, MARV entry inh 0%[46.1 µM], SARS PLP yeast 3%, LASV entry inh -6%[46.1 µM] and 2A StopGo -16%.
Screening Cn1ccc2c(OCC(=O)NCc3ccc(F)cc3)cccc2c1=O returned LASV entry inh inconclusive, Cruzain noTriton -2%, 2A StopGo 0% and Cruzain Triton -0.5%.
O=C(CN1C(=O)NC(Cc2ccccc2)(Cc2ccccc2)C1=O)NCC1CCCCC1 was read as RE007 growth inh 3%, MARV entry inh inconclusive, SARS PLP yeast -2%, LASV entry inh inconclusive, Cruzain noTriton -7%, 2A StopGo -28%, Cruzain Triton -5.9% and NS1 inh -7%.
COc1ccc(C2(CNC(=O)c3cc([N+](=O)[O-])cc([N+](=O)[O-])c3)CCCC2)cc1OC was read as RE007 growth inh -10%, MARV entry inh -42%, SARS PLP yeast -1%, LASV entry inh -29%, Cruzain noTriton 4%, 2A StopGo -8%, Cruzain Triton -4.4% and NS1 inh 1%.
Screening CCN(C(=O)Cn1cnc2onc(-c3ccc(F)cc3)c2c1=O)c1cc(C)ccc1C returned LASV entry inh 24%[46.1 µM], Cruzain noTriton -13%, 2A StopGo -15% and Cruzain Triton -0.2%.
Cc1ccc(C(=O)CCC(=O)Nc2cccc(C)c2)cc1 was read as RE007 growth inh -7%, MARV entry inh 18%[46.1 µM], SARS PLP yeast 1%, LASV entry inh 4%[46.1 µM], 2A StopGo 8% and NS1 inh 13%.
`CCN(CC(=O)NCc1ccc(Cl)cc1)C(=O)CCc1ccccc1O` gave RE007 growth inh -4%, MARV entry inh -4%[46.1 µM], SARS PLP yeast 4%, LASV entry inh inconclusive, 2A StopGo 2% and NS1 inh 1%.
Screening Cc1ccc(S(=O)(=O)CCC(=O)c2cccc([N+](=O)[O-])c2)cc1 returned RE007 growth inh 5.6µM*, MARV entry inh inconclusive, SARS PLP yeast -24%, LASV entry inh inconclusive, 2A StopGo 25µM* and NS1 inh -139%.
Screening COc1ccc(-c2c(C)nn3c(N)c(C#N)cnc23)cc1OC returned RE007 growth inh 8%, MARV entry inh -27%[46.1 µM], SARS PLP yeast 1%, LASV entry inh -12%, 2A StopGo -7% and NS1 inh -6%.
Screening Cc1cccc(C(=O)Nc2ccc(-c3nc4ncccc4o3)cc2C)c1 returned Cruzain noTriton -7%, 2A StopGo -2% and Cruzain Triton -0.7%.
Screening c1ccc(COc2ccccc2CNc2nn[nH]n2)cc1 returned RE007 growth inh 8%, SARS PLP yeast -1%, 2A StopGo 2% and NS1 inh 3%.
Screening CC(=O)OC1C2CCC1C(N1CCCCC1)CC2 (stereo not given) returned RE007 growth inh -8%, MARV entry inh -15%[46.1 µM], SARS PLP yeast 2%, LASV entry inh 20%[46.1 µM] and 2A StopGo -4%.
`Cc1ccc(-c2noc(CCC(=O)Nc3ccccc3C)n2)cc1` gave RE007 growth inh -8%, MARV entry inh -8%, SARS PLP yeast 3%, LASV entry inh 9%, Cruzain noTriton -7%, 2A StopGo 12%, Cruzain Triton -1.5% and NS1 inh -2%.
For CC(C)Oc1ccc(C(=O)NN2C(=O)NC3(CCCCC3)C2=O)cc1 the results were RE007 growth inh -18%, MARV entry inh 18%, SARS PLP yeast -2%, LASV entry inh -1% and 2A StopGo 28%.
`O=C(Nc1nc2ccc(Cl)cc2s1)c1ccc(S(=O)(=O)N2CCCC2)cc1` gave LASV entry inh 0%[46.1 µM], Cruzain noTriton -3%, 2A StopGo -13% and Cruzain Triton -3.3%.
Screening CC1(C)CC(=O)C=C(Nc2ccc(OCC(F)(F)C(F)F)cc2)C1 returned RE007 growth inh 0%, MARV entry inh 15%[46.1 µM], SARS PLP yeast 1%, LASV entry inh -14%, Cruzain noTriton -5%, 2A StopGo -12%, Cruzain Triton 1.6% and NS1 inh -4%.
`CCC1CCCCN1C(=O)COC(=O)c1cc2ccccc2cc1O` (stereo not given) gave RE007 growth inh inconclusive, MARV entry inh 0%, SARS PLP yeast -5%, LASV entry inh 2%, Cruzain noTriton 0%, 2A StopGo 15%, Cruzain Triton 1.4% and NS1 inh -40%.
Screening Cn1ncc([N+](=O)[O-])c1C(=O)Nc1nc2ccccc2n1CCN1CCCCC1 returned RE007 growth inh 2%, MARV entry inh -1%, SARS PLP yeast 10%, LASV entry inh 18%, Cruzain noTriton -4%, 2A StopGo -9%, Cruzain Triton -0.9% and NS1 inh -3%.
For COc1ccccc1C(=O)C1CCCN(C(=O)C2=CC(=O)CC(C)(C)O2)C1 (stereo not given) the results were RE007 growth inh -9%, MARV entry inh 0%[46.1 µM], SARS PLP yeast -3%, LASV entry inh -9%[46.1 µM], 2A StopGo 30% and NS1 inh -3%.
CC(C)Cn1c(C(C)NC(=O)Cc2ccccc2)nc2ccccc21 (stereo not given) was read as RE007 growth inh -26%, SARS PLP yeast 0%, Cruzain noTriton 1%, 2A StopGo -11%, Cruzain Triton -3.0% and NS1 inh -4%.
NC1=NS(=O)(=O)NC1c1ccc(Cl)cc1 (stereo not given) was read as RE007 growth inh 8%, MARV entry inh 7%, SARS PLP yeast 2%, LASV entry inh 4%, Cruzain noTriton 1%, 2A StopGo 16%, Cruzain Triton -0.4% and NS1 inh -7%.
For Cc1ccc(-n2nc(C)cc2NC(=O)c2ccc(C)s2)cc1 the results were RE007 growth inh 4%, MARV entry inh 6%, SARS PLP yeast -6%, LASV entry inh 16%, Cruzain noTriton -5%, 2A StopGo 0%, Cruzain Triton 2.0% and NS1 inh 1%.
